HPGD inh = blocks human HPGD enzyme activity; purified HPGD, NADH fluorescence kinetic, PGE2 substrate; Potency, µM, inactives show at the top dose activity change, negative = inhibition, actives largely listed as inhibitors; 150,000 tested, 4.3% active; AID 894; active = well fitted inhibition curve with a large enough effect (not every such curve was filed as active); inconclusive = small, poorly fitted or top-dose-only effect, or another doubt; inactive = no such curve, though single readings can be large or run the other way;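 also: top concentration of the series not given in the record; plate controls included wells without enzyme; inactives centre near -10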
Target sequence (P15428 whole entry, looked up): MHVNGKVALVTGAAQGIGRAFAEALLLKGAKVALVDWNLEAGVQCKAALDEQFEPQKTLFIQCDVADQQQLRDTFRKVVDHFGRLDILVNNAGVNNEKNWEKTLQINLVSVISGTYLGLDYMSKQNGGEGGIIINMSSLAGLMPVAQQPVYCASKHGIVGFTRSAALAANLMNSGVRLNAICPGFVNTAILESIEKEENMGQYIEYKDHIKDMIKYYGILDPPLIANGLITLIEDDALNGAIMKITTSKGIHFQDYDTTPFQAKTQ
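NADH formation kinetics: reaction with 30 uM PGE2 and 1 mM NAD+ (final), 20 nM enzyme, Tris-HCl pH 8 with Tween 20, after 15 min compound preincubation at room temperature. Fluorescence change, last versus first of five reads.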
The depositor's hits bear a star; ? = inconclusive. % is scaled to controls: 0 for no effect and ±100 for the full control effect; potency is read from the fitted curve at half-maximal effect. These rows are one share of the data; rates above refer to the full screens.

HPGD inh | Compound
14µM* | COc1ccc(NC(=S)NNc2ccc([N+](=O)[O-])cc2S(=O)(=O)Nc2ccc(C)cc2C)cc1
-13% | Cc1ccc(S(=O)(=O)NCCSc2nnc(N)s2)cc1
-11% | CC1(OC(=O)C2CCCC2)C(=O)C=C2C=C(c3ccsc3)N(Cc3ccco3)C=C2C1=O (stereo not given)
-2% | Cc1cccc(NC(=O)CCn2ccnc2C)c1
-18% | COc1ccc(CCN(Cc2cc3cc(C)ccc3[nH]c2=O)C(=O)N2CCCC2)cc1OC
-3% | COC(CN(C(=O)CCl)C(C(=O)NC1CCCCC1)c1ccccc1C)OC (stereo not given)
-4% | CCOC(=O)Cc1csc(NC(=O)CN2C(=O)c3ccccc3S2(=O)=O)n1
-16% | Cc1ccc(C)c(NC(=S)NCc2cccn2C)c1
-16% | C/C(=N\N1CCN(C2c3ccccc3-c3ccccc32)CC1)c1cccnc1
-18% | COc1ccc(CNC(=O)Cc2csc(Nc3nc(=S)[nH]c4ccccc34)n2)cc1
2% | COc1ccc(OCC(=O)NCc2cccnc2)cc1
? | CN(C)c1oc(-c2ccco2)nc1C#N
-10% | COc1ccc(CCn2c(N3CCN(C)CC3)nc3c2c(=O)[nH]c(=O)n3C)cc1
-14% | O=C(NC1CCCc2ccccc21)c1cccc(Br)c1 (stereo not given)
-17% | COc1ccc(C2=NOC(COC(=O)c3ccc4ccccc4n3)C2)cc1 (stereo not given)
-1% | COc1ccc(C(N)=O)cc1NC(=O)CC(O)(C(F)(F)F)C(F)(F)F
-7% | C#CCSc1nnc(-c2ccccc2)c(=O)[nH]1
-16% | FC(F)(F)c1cccc(NC(=S)N2CCN(c3ccccc3)CC2)c1
-10% | CCNc1nc2ccccc2[nH]1
-21% | COc1cc(C(=O)Oc2ccc3c(c2)OCC3=O)cc(OC)c1OC
? | Cn1c(=O)c2c(nc(N/N=C/c3cccs3)n2Cc2ccc(Br)cc2)n(C)c1=O
-15% | C[C@H]1C2=C3C(C[C@H]4C(=O)N(c5ccccc5)C(=O)[C@H]4[C@H]3[C@@]3(Cc4ccccc4)C(=NCCc4c[nH]c5ccccc45)OC(=O)N3C2=O)[C@H]2C(=O)N(c3ccccc3)C(=O)[C@H]21 (stereo not given in full)
-21% | O=C(CSCCO)Nc1ccccc1
? | Cc1cc(C(=O)Nc2ccc(S(=O)(=O)Nc3onc(C)c3C)cc2)c(C)o1
-3% | Cc1cccc(C2NC(c3cccc(C)c3)C([N+](=O)[O-])C(C)(C)C2[N+](=O)[O-])c1 (stereo not given)
-9% | CN(C)CCn1c(=S)[nH]c2ccccc2c1=O
-11% | O=C(COc1ccc(Cl)cc1)NCc1nnc(SCC(=O)NC2CCCC2)o1
-6% | O=CNC(=O)c1ccccc1C(=O)O
-7% | CC(C)CCNC(=O)CCS(=O)(=O)c1cccc2nonc12
-10% | O=S(=O)(NCCSc1ccccc1)c1ccc(F)cc1
-9% | O=C(CCN1C(=O)C2C3CCC(C3)C2C1=O)Nc1ccc(Br)cc1 (stereo not given)
-4% | CCc1c(C)nc2ncnn2c1N1CCC(C(=O)Nc2cccc(C(C)=O)c2)CC1
-5% | CCCC(=O)NCCCc1nc2ccccc2n1CC
-8% | Nc1ccc(C(=O)OCC(=O)N2CCN(C(=O)c3ccco3)CC2)cc1[N+](=O)[O-]
-2% | S=C(NCc1ccc(Cl)cc1)NC1CCCCC1
-10% | Cc1ccc(-c2nnn(CC(=O)Nc3cccc4c3CCCC4)n2)o1
-5% | Cc1ccc2oc(=O)ccc2c1
-5% | CC(CCC(=O)Nc1nncs1)C(=O)O (stereo not given)
-7% | CN(C)c1nc(-c2ccccc2)nnc1C(F)(F)F
3% | CC(C)(C)c1ccccc1OCCN1CCCC1
13µM* | CC(C)CSc1nc2c(c(=O)[nH]c(=O)n2C)n1CC(O)COc1cccc2ccccc12 (stereo not given)
2% | CC(=O)Nc1cccc(S(C)(=O)=O)c1
3.5µM* | O=C(CSc1nc2ccc(S(=O)(=O)N3CCOCC3)cc2[nH]1)N1CCOCC1
-10% | COc1ccccc1N(CC(O)COc1ccccc1)S(=O)(=O)c1ccccc1 (stereo not given)
-6% | O=C(CCc1nc2ccccc2s1)OCc1ccccc1
0% | COCCN(CC(=O)NCc1ccc(OC)cc1)C(=O)CCC(=O)Nc1nccs1
-14% | Cc1cccc(NC(=O)Cn2c(=O)n(CCC(=O)NC3CCCC3)c(=O)c3ccccc32)c1
? | CC(=O)NS(=O)(=O)c1ccc(NC(=O)c2cc(-c3cccs3)nc3ccccc23)cc1
-19% | COc1ccc(/C(O)=C2/C(=O)C(=O)N(CCN(C)C)C2c2ccccn2)cc1OC (stereo not given)
-10% | Cc1nc(Nc2ccccc2)c2nc(-c3ccccc3)n(CCCN3CCCCC3C)c2n1 (stereo not given)
? | CCOC(=O)c1c(NC(=O)c2nn(CC)cc2Br)sc2c1CCCCC2
-15% | CCOc1ccc(C(CCc2ccccc2)NC(=O)c2ccc(OC)c(OC)c2)cc1OCC (stereo not given)
? | COc1ccc(/C=N/NC(=O)CCc2c(C)n[nH]c2C)cc1OC
-18% | C=CCN1c2ccccc2[C@]23C[C@@H](C(=O)OC)N(S(=O)(=O)c4ccc([N+](=O)[O-])cc4)C2=NC(C(=O)OC)=C(C(=O)OC)[C@H]13
-5% | O=C(NC1(C(F)(F)F)NC(=O)N(Cc2ccco2)C1=O)c1cccnc1 (stereo not given)
-12% | O=C(CN1CCCCC1)Nc1cccc([N+](=O)[O-])c1
-18% | O=C(COc1ncnc2scc(-c3ccc(F)cc3)c12)NCc1ccco1
-2% | CCN(CC)Cc1cc2ccccc2c2c1COC2
-8% | COC(=O)/C(=C/Nc1ccc(O)cc1)[N+](=O)[O-]
-24% | COc1cccc(NC(=O)N2CCCC(C(=O)NCc3ccc(F)cc3)C2)c1 (stereo not given)

More entries follow:
HPGD inh | Compound
8% | Cc1nnc(SCCn2c(N3CCCC(C)C3)nc3c2c(=O)n(C)c(=O)n3C)s1 (stereo not given)
3% | C/C(Cc1ccccc1)=N\NC(=O)CNC(=O)c1ccccc1
-1% | CC(=O)Nc1ccc(S(=O)(=O)NNC(=O)COc2ccc(C)cc2)cc1
-9% | CN1CCN(CC(=O)Nc2ccc(OCc3ccccc3)cc2)CC1
-22% | COc1ccc(N(CC(=O)Nc2ccc3c(c2)OCO3)S(=O)(=O)c2ccc(F)cc2)cc1
-4% | O=C(C1CCCN(S(=O)(=O)c2ccccc2)C1)N1CCCCCC1 (stereo not given)
-9% | CC(C)=C1C2CCC1C1C(=O)N(NC(=O)COc3ccc(Cl)c(C)c3)C(=O)C21 (stereo not given)
-17% | CCOc1ccc(C(=O)/C=C/Nc2ccc(S(=O)(=O)N=C(N)N)cc2)cc1
-9% | c1ccc2oc(SCc3cn4ccsc4n3)nc2c1
? | Cc1cccc(N(CC(=O)Nc2ccc(-c3nc4ccc(C)cc4s3)cc2)S(C)(=O)=O)c1
-7% | C=CCn1c(N)c(C(=O)NCC2CCCO2)sc1=S (stereo not given)
-12% | Cc1ccc(C)c(C(=O)Cn2ncc(Cl)c(Cl)c2=O)c1
? | COc1ccccc1CCn1cnc2c3cc(C)ccc3n(C)c2c1=O
-9% | COc1ccc(C(=NNc2ccccc2C(=O)O)c2ccc(OC)cc2)cc1
-20% | CCCc1cc2c(cc1NC(=O)c1ccc(C(C)(C)C)cc1)OCO2
-7% | Cc1ccc(S(=O)(=O)NC(CC(=O)NC2CCCC2)c2ccco2)cc1 (stereo not given)
-11% | COc1ccc(C(=O)NC2CCN(C(=S)Nc3cc(C)cc(C)c3)CC2)cc1
-13% | COc1cccc(C(=O)Oc2cc(-c3ccccc3)no2)c1
-3% | O[C@H](CCCN1CCN(c2ncc(F)cn2)CC1)c1ccc(F)cc1
-9% | Cc1[nH]c(=O)[nH]c(=O)c1S(=O)(=O)N1CCCC(C(=O)NCCc2ccc(Cl)cc2)C1 (stereo not given)
-13% | Cc1cc(N/N=C/c2ccc(O)c(C)c2O)nc(-c2ccccc2O)n1
-17% | COc1ccc(Cl)cc1Nc1nc(-c2sc(NC(=O)C(C)(C)C)nc2C)cs1
-10% | Cc1ccc(C(c2nnnn2C2CCCC2)N2CCN3CCCC3C2)cc1 (stereo not given)
-21% | CCC(c1nnnn1Cc1ccc(F)cc1)N(CCCO)Cc1cc2cc3c(cc2[nH]c1=O)OCO3 (stereo not given)
10µM* | Cc1nnc(SCc2cc(=O)[nH]c(N3CCN(Cc4ccccc4)CC3)n2)s1
-4% | CCc1nnc(NC(=O)CSc2nnc(COc3ccc(C#N)cc3)n2-c2ccccc2)s1
? | O=C(O)[C@@H](S)[C@H](S)C(=O)O
-4% | c1ccc2c(c1)CCCN2Cc1nnnn1CC1CCCO1 (stereo not given)
-12% | CC(C)Oc1ccc(C2CC(=O)N(c3cccc(C(=O)O)c3)C2=O)cc1 (stereo not given)
-21% | CC1CN(c2ccc([N+](=O)[O-])cc2C(=O)N2CCOCC2)CC(C)N1 (stereo not given)

An excerpt from above in order of their number in HPGD inh, largest number first.
HPGD inh | Compound
-3% | O[C@H](CCCN1CCN(c2ncc(F)cn2)CC1)c1ccc(F)cc1
-4% | CCc1nnc(NC(=O)CSc2nnc(COc3ccc(C#N)cc3)n2-c2ccccc2)s1
-9% | Cc1[nH]c(=O)[nH]c(=O)c1S(=O)(=O)N1CCCC(C(=O)NCCc2ccc(Cl)cc2)C1 (stereo not given)
-10% | Cc1ccc(C(c2nnnn2C2CCCC2)N2CCN3CCCC3C2)cc1 (stereo not given)
-13% | Cc1cc(N/N=C/c2ccc(O)c(C)c2O)nc(-c2ccccc2O)n1

Carrying on.
HPGD inh | Compound
? | CCCn1c(=O)c(C)cn2nc(N)nc12
-2% | CN(C)c1ccc(NC(=O)CC2NCCNC2=O)cc1 (stereo not given)
-5% | CC1CCC(C(C)C)C(OCC(O)CN2CCN(Cc3ccccc3)CC2)C1 (stereo not given)
? | C[n+]1cc2c3c(ccc2c2ccc4cc5c(cc4c21)OCO5)OCO3
-8% | O=C(c1cnccn1)N1CCC2(CC1)CN(Cc1nccs1)C2
-16% | COCCCNCCOCCOc1ccc(C)cc1Br
? | Oc1ccc(-c2nc(-c3ccc(O)c(O)c3)cs2)cc1
2% | O=C(NNS(=O)(=O)c1ccccc1[N+](=O)[O-])c1ccccc1[N+](=O)[O-]
5% | O=S(=O)(NCc1cccnc1)c1ccc2c(c1)OCCO2
-9% | CCS(=O)(=O)N1CCN(C(=O)CC(C)C)CC1
-6% | COC(=O)/C=C1/C(=O)N/C(=N\c2nc(C)cc(C)n2)N1c1ccc(OC)cc1
-1% | CN1CCN(CCCNC(=O)c2nnc(Cc3c(F)cccc3Cl)o2)CC1
-15% | CC(=O)N(C(C)=O)c1ccc2nc(C)[nH]c(=O)c2c1
3% | COc1cccc(OC)c1C(=O)Nc1ccc(CN2CCCCC2)cc1
-15% | Cc1[nH]n(-c2cccc(Cl)c2)c(=O)c1C=NC12CN3CN(CN(C3)C1)C2
? | COc1cc(/C=C/C(=O)NCc2ccccn2)cc(OC)c1OC
? | Clc1ccccc1CSc1nnc(/C=C/c2ccccc2)o1
? | COc1cccc(NS(=O)(=O)c2cc(C)sc2C)c1
? | Oc1ccc2ccccc2c1/C=N/Nc1ccccc1
-14% | NC1=CC(=O)c2cccc3cccc1c23
0% | O=C(N=Nc1c(O)n(C2OC(=O)c3ccccc32)c2ccccc12)c1ccc(O)cc1 (stereo not given)
-27% | CCC(=O)N(CC)c1nc(-c2cc(OC)ccc2OC)cs1
-7% | Cc1sc(N/N=C/c2cccs2)nc1-c1ccccc1
-11% | COc1ccc(OC)c(NC(=O)CSc2nnc(C)n2Cc2ccccc2)c1
-6% | CCOc1ccc(CNC(=O)C(CC)n2nc(C)n3c(cc4occc43)c2=O)cc1OC (stereo not given)
-3% | COc1cccc(CNC(=O)Cc2ccc(-n3c(=O)[nH]c4ccccc4c3=O)cc2)c1
4% | O=C1N/C(=C\c2ccsc2)C(=O)N1Cc1ccc(F)cc1
-14% | CC1(C)CC(=O)C2=C(C1)Nc1ccccc1NC2c1nc2ccccc2[nH]1 (stereo not given)
-23% | O=C(COC(=O)CNC(=O)c1ccc(Br)o1)Nc1ccc2c(c1)OCCO2
-12% | Cc1nc([N+](=O)[O-])c(Br)n1CC(=O)c1ccccc1

7 entries from above in another layout:
SMILES,HPGD inh
C[n+]1cc2c3c(ccc2c2ccc4cc5c(cc4c21)OCO5)OCO3,?
CC(CCC(=O)Nc1nncs1)C(=O)O (stereo not given),-5%
O=S(=O)(NCCSc1ccccc1)c1ccc(F)cc1,-10%
Oc1ccc(-c2nc(-c3ccc(O)c(O)c3)cs2)cc1,?
Cc1cccc(NC(=O)Cn2c(=O)n(CCC(=O)NC3CCCC3)c(=O)c3ccccc32)c1,-14%
O=C(CCc1nc2ccccc2s1)OCc1ccccc1,-6%
CCc1nnc(NC(=O)CSc2nnc(COc3ccc(C#N)cc3)n2-c2ccccc2)s1,-4%

Next part:
HPGD inh | Compound
-6% | Cc1ccc(CNC(=O)CCSCCC(=O)NCc2ccc(C)cc2)cc1
-18% | C=CCn1c(SCC(=O)N2CCOCC2)nc2scc(-c3ccco3)c2c1=O
-13% | Cc1ccc(-c2nn3c(C)nnc3c3ccccc23)cc1S(=O)(=O)NC(C)c1ccccc1 (stereo not given)
-8% | COCCn1c(=O)[nH]c2cc(C(=O)N3CCN(c4ccccc4OC)CC3)ccc2c1=O
-6% | Cc1nc2c(n1O)CCC/C2=N\O
-8% | CCOC(=O)CCCNC(=O)COC(=O)c1cccc(C)c1O
-14% | CC(=O)Nc1cccc(C(=O)OCc2ccccc2)c1
? | Cc1cnc(C)c(N2CCC(C(=O)NCc3ccco3)CC2)n1
-12% | O=c1c(Cl)c(Cl)cnn1-c1ccccc1
-16% | COc1ccc(Oc2c(Cl)cnn(-c3ccc(C)cc3)c2=O)cc1

From PubChem
